Sa ugtP lethal – growth inhibition of S. aureus ugtP deletion strain; S. aureus RN4220 ugtP deletion, OD600 growth, 16 h; some inactives read as strong as hits; growth inhibition, % (no concentration beside the values); 330,000 compounds, 0.54% hits; AID 1259309;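 active means z-score under -3 and OD600 up to 0.15 on both plates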;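 further: plate controls were untreated wells for no effect and antibiotic for full effect; wells of about 80 µL received 100 nL stock; the first replicate is given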
Mtb hypoxia rep – Mtb hypoxia fluorescent reporter inhibition; M. tuberculosis hypoxia-regulated fluorescent reporter, fluorescence; fluorescence inhibition, % (concentration not given with the values); 300,000 compounds, 0.1% hits; AID 1159583;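 active means 35 to 45% if threefold the growth effect, above 45% if 1.5-fold the growth effect; inactive means the rest, general growth blockers included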;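 further: wells of about 50 µL received 100 nL stock; 0% = vehicle wells and 100% = reference inhibitor wells; whole bacteria with a GFP reporter of the hypoxia response; strong numbers were not always called active; many hits fall short of the cut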
Sa RN4220 lethal – S. aureus RN4220 growth inhibition; 330,000 compounds, 0.33% hits; inhibition, % (test concentration not listed); AID 1259311; OD600, 16 h;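 active means z-score of -3 or lower and OD600 up to 0.18 on both plates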;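 further: plate controls were untreated cells for no effect and reference antibiotic for full effect; stock transfer was 100 nL into about 80 µL; one replicate is shown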
PrP UTR inh – suppresses PrP 5' UTR mRNA reporter expression | cell-based PrP 5' UTR mRNA reporter, plate reader | inhibition, % (no concentration beside the values) | 340,000 compounds, 0.35% hits | AID 488862;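 active means every replicate at 50% or more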;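 further: 0 = median of the neutral control wells; tested in H4 reporter cells; numbers are from one replicate; inactives centre near -14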
BJeLR lethal – kills HRASV12-expressing BJeLR cells | inhibition, % (test concentration not listed) | BJeLR (HRASV12) viability, CellTiter-Glo ATP luminescence, 48 h; reference of the scale not given here | 300,000 compounds, 0.17% hits | AID 1554;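 active means replicate mean above 50%; inconclusive means above 50% but judged a plate artefact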;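 further: 50 nL library stock added to about 25 µL; numbers are from one replicate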
Autofluor counter – compound fluorescence in toxin protease inhibitor counterscreen | AID 624483 | compound autofluorescence counterscreen, microsphere flow cytometry; active compounds read high | 360,000 compounds, 3.1% hits | fluorescence intensity (test concentration not listed);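 active means at least 3 SD above the mean of all compounds, about 16000 in these data; inconclusive means too few beads counted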;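 further: 100 nL of 1 mM stock went into each well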
Mtb hypoxia rep growth – recorded beside Mtb hypoxia rep, whose call it bears; growth inhibition, %; measured here: M. tuberculosis growth (absorbance);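 0% = vehicle and 100% = reference antibiotic; read after six days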
* marks the source's active call; other numbers are inactive results; ? = inconclusive; . = not tested or not shown.

smiles,Sa RN4220 lethal,Autofluor counter,BJeLR lethal,Sa ugtP lethal,PrP UTR inh,Mtb hypoxia rep growth,Mtb hypoxia rep
COc1ccc(CNC(=O)C(C)OC(=O)CN2C(=O)COc3ccccc32)cc1 (stereo unspecified),2.7,3945,8,6,-19,-3,4
Cc1ccc(C(=O)Nc2sc(C)c(C)c2C(=O)c2ccccc2)cc1,-4.0,2113,4,30,-2,9,14
COc1ccc(COC(=O)c2ccc(Cl)c(S(=O)(=O)N3CC(C)OC(C)C3)c2)cc1 (stereo unspecified),-4.8,.,0,-13,-13,-2,1
CCn1c(SCc2nc3ccccc3[nH]2)nnc1-c1cnccn1,1.3,10460,-6,4,-50,0,7
Nc1ccc2c3c(cccc13)CC2,2.4,4687,-3,1,2,3,4
Cc1ccccc1C(=O)N1c2ccccc2OCC1C(C)(C)C (stereo unspecified),6.0,3275,-10,1,-10,6,6
Cc1cccc2nc(COc3ccc4ccccc4c3Br)cn12,.,4486,3,.,-100,.,.
CC1(C)C(=O)OC(c2cccn2-c2ccc([N+](=O)[O-])cc2)C(C)(C)C1=O (stereo unspecified),2.1,2210,0,12,-14,4,2
CC(C)C[C@H](NC(=O)N1CCn2c1nc1ccccc12)C(=O)NCCc1ccccc1,-1.6,5895,-4,-9,-12,-2,0
O=C(/C=C/c1ccccc1)NCc1ccco1,1.1,4277,1,0,-46,.,.
CC(=O)c1ccc(-n2c(=O)[nH]c(=O)c3c(N)c(C(=O)c4ccc(Cl)cc4)sc32)cc1,1.7,4776,9,7,-4,-6,2
CC(C)(C)c1ccc(OCCCn2ccnc2)cc1,1.2,4217,0,21,-8,-1,12
Cc1ccc(CNC(=O)c2ccc3c(=O)n(CC4CCCO4)c(=S)[nH]c3c2)cc1 (stereo unspecified),-4.8,8004,-3,27,.,5,4
O=c1cc(CCl)nc2sc3ccccc3n12,2.8,4361,-40,10,-3,3,-1
CCOc1ccc(NS(=O)(=O)c2ccc(NC(C)=O)c(OC)c2)cc1,1.2,8965,2,8,-14,4,14
COc1cc(C(=O)OCc2cc(=O)n3ccsc3n2)ccc1OC(C)C,1.5,3967,.,-1,-54,8,5
COc1ccc(Cn2c(=S)[nH]c3ccccc32)cc1,2.6,4933,-36,-2,-5,0,1
N/C(=N\c1nc(CSc2ccc(Cl)cc2)cc(=O)[nH]1)Nc1cccc2ccccc12,1.9,9297,-1,-14,-29,0,0
COC(=O)C1CCN(C(=O)c2cc3ccccc3oc2=O)CC1,-0.2,7806,2,3,-23,-2,7
COc1ccc(Cl)cc1C(=O)Nc1ccc2nc3n(c(=O)c2c1)CCCC3,7.5,3880,-2,8,-16,11,-1
O=C(Nc1cccnc1)c1cccc(-c2cc3ccccc3oc2=O)c1,2.9,2188,-9,1,-16,8,-3
CC1(C)OC(=O)C(=CNc2ccc(F)cc2)C(=O)O1,-0.4,4198,-3,4,-30,0,7
Cc1cccc(C(=O)NCCCn2ccnc2)c1C,1.4,4411,-1,0,-19,-3,16
Cc1ccc(C(=O)NC(NC(=S)Nc2ccc(S(N)(=O)=O)cc2)C(Cl)(Cl)Cl)cc1 (stereo unspecified),-1.2,8751,0,-3,-6,4,3
Cc1ccc(-c2nc3c(c(=O)[nH]c(=O)n3Cc3ccccc3)n2C)o1,4.0,6896,.,3,-23,9,7
COC(=O)CSc1nc2ncccc2[nH]1,3.5,5223,5,-4,-26,2,1
Cc1ccc(CNS(=O)(=O)CCNC(=O)c2ccccc2)cc1,3.0,?,-4,3,-17,0,2
COc1ccccc1NS(=O)(=O)c1cccc(C(=O)NN=C2CCCC2)c1,1.4,3251,-7,7,45,-6,2
Cc1ccc(S(=O)(=O)N(C)C)cc1NC(=O)COC(=O)Cc1n[nH]c(=O)c2ccccc12,0.9,5434,-14,4,-10,11,4
CCCCNC(=S)NN=Cc1ccc(C)s1,-1.5,.,.,13,.,16,10
CC(NC(=O)C1C(=O)N(CCO)C2(C)CC1c1ccccc1O2)c1ccccc1 (stereo unspecified),1.9,3949,10,5,-23,16,14
CC1CCC(N(C)C2CCN(C)CC2)CC1 (stereo unspecified),0.7,3931,-6,1,-4,8,5
O=C(N/N=C/c1ccc(OC(=O)c2ccccc2Cl)cc1)c1cc(O)cc(O)c1,.,4471,-2,.,-9,.,.
COc1ccc(/C=C/C(=O)c2cc(F)ccc2OC(=O)c2ccccc2C)cc1OC,3.8,2174,77*,-5,43,11,7
COc1ccc(S(=O)(=O)Nc2ccccn2)cc1OC,1.7,7958,13,-1,-11,3,5
CC(=O)Nc1ccc(S(=O)(=O)N2CCC(NC(=O)c3ccco3)CC2)cc1,-0.9,3473,-18,3,-15,-5,5
COc1cccc(N2[C@@H](CC(C)=O)c3cc(C(F)(F)F)ccc3S2(=O)=O)c1,.,3818,4,.,-17,.,.
CCOC(=O)c1cc(CC)sc1NC(=O)CN1CCN(C(=O)c2ccco2)CC1,-0.1,4439,-1,12,-7,-6,14
O=C(CNS(=O)(=O)c1cccs1)N1CCC2(CC1)OCCO2,-0.3,2719,-4,-3,-17,.,.
S=c1[nH]nc(-c2ccncc2)n1/N=C/C=C/c1ccco1,.,2508,3,.,-23,.,.
O=C(COc1ccc2ccc(=O)oc2c1)Nc1ccc2c(c1)OCCO2,-3.7,21506*,12,3,-26,2,-1
CSc1ccc(C=C(NC(=O)c2ccc(C)cc2)C(=O)Nc2cccc(C)c2)cc1,7.9,.,.,-12,.,1,5
Cc1ccc(-c2cccc(OC(=O)c3ccccc3F)c2)cc1,13,9481,-4,6,-21,5,-1
CCc1ccc(CNC(=O)CCn2ccc3cc(S(=O)(=O)N4CCCC4)ccc32)cc1,0.4,5809,-6,2,-16,1,1
COc1ccc(C(=O)Nc2ccccc2C(=O)NCCN2CCOCC2)cc1,4.4,9553,-5,-2,-28,7,5
COc1ccc(-c2cc(C(F)(F)F)c(C#N)c(SCC(=O)O)n2)cc1,-3.7,3947,2,11,-4,4,15
COc1ccc(-c2csc(N=CN(C)C)n2)cc1OC,4.8,.,.,15,.,10,13
O=[N+]([O-])c1ccc(CP(=O)(c2ccccc2)c2ccccc2)cc1,-0.8,4094,2,8,-18,-6,9
Cc1cc(C)n(CCc2nc(-c3cccs3)cs2)n1,6.3,2263,-6,7,-10,.,.
Cc1ccc(C)c(OCCCC(=O)NC2CCCCC2)c1,4.6,3794,2,6,-3,17,8
COc1ccc(NC(=O)N(Cc2cc3cc(OC)c(OC)cc3[nH]c2=O)CC2CCCO2)cc1 (stereo unspecified),3.3,3207,4,2,-4,1,0
CCS(=O)(=O)c1ccc(O)c(NC(=O)COc2ccccc2)c1,0.0,11012,-8,2,-1,0,0
COC(=O)c1nnn(-c2cccc(Cl)c2)c1C(=O)OC,2.4,4274,4,4,6,5,-3
C#CCOCCOCCOCCNc1nc(N2CCN(C(=O)CCCCCCCCCCNC(=O)C(CCCCN)n3cc(CCO)nn3)CC2)nc(N2CCN(C(=O)CCCCCCCCCCNC(=O)C(C(C)O)n3cc(C)nn3)CC2)n1 (stereo unspecified),4.1,.,.,-31,.,21,6
COC(=O)Cn1c(CN2CCc3ccccc3C2)nc2c1c(=O)n(C)c(=O)n2C,-3.1,5766,6,-3,-36,9,9
CCC1(C(=O)O)NC(c2cccc(OC)c2O)C2C(=O)N(c3ccccc3)C(=O)C21 (stereo unspecified),4.4,4035,9,-6,-6,.,.
CCCCCOCC1CC(CC(C)=NNC(N)=S)C(=O)O1 (stereo unspecified),4.8,.,.,5,.,-1,0
OC(COc1ccc(C2C=CCC2)cc1)CN1CCCCC1 (stereo unspecified),3.7,6685,-10,26,3,1,15
O=C(O)CC1(CC(=O)NCc2ccc(-c3cccs3)cc2)CCCCC1,-9.9,3682,0,28,-11,6,3
COc1ccc(N=C2CCS(=O)(=O)c3sccc32)cc1,7.4,4586,.,6,-21,-5,18

Next part:
smiles,Sa RN4220 lethal,Autofluor counter,BJeLR lethal,Sa ugtP lethal,PrP UTR inh,Mtb hypoxia rep growth,Mtb hypoxia rep
COc1ccccc1N1CCN(S(=O)(=O)c2ccc3c4c(cccc24)C(=O)N3)CC1,2.6,10158,2,3,2,3,-1
O=C(Nc1ccc2c(c1)OCO2)c1ccc(Cl)cc1Cl,0.9,6385,-6,1,-52,-1,-5
O=C(NC1CCCCC1)c1ccccc1NC(=S)NC(=O)C1CC1,6.8,2196,5,-1,-18,4,10
Cn1ncc2c(Nc3ccc(Cl)c(Cl)c3)ncnc21,52,5683,-19,17,-7,-3,7
CN1CCC(OC(=O)c2ccco2)CC1,6.5,4480,-11,4,-6,18,1
CC1CCCN(CCCN2C(=O)C3C(C(=O)Nc4ccc(Cl)cc4)C4C=CC3(O4)C2C(=O)NC2CCCCC2)C1 (stereo unspecified),4.6,6254,7,13,-9,0,5
COc1cccc(NS(=O)(=O)NC(=O)c2c[nH]c3ccccc23)c1,1.3,5830,-7,6,-8,-1,10
C[C@H](CO)N1C[C@H](C)[C@@H](CN(C)Cc2ccccc2)Oc2c(NS(=O)(=O)c3ccc(F)cc3)cccc2C1=O,-17,3555,.,1,-6,2,8
N[C@@H](Cc1ccccc1)C(=O)N1CCOCC1,.,3925,0,.,-27,.,.
CN(CC(=O)NCCN1CCOCC1)S(=O)(=O)c1ccc(F)cc1,2.6,3762,-3,4,-22,1,12
COC(=O)[C@@]1(Cc2ccc(OC)cc2)C2c3cc(C(=O)N4CCCC4)n(CCO)c3CC2CN1C(=O)c1ccccc1 (stereo partly specified),2.5,.,.,2,.,12,15
CCO/N=C(/C)c1c(O)cc(-c2ccccc2)n(-c2ccccc2)c1=O,.,2830,3,.,8,.,.
Cc1ccccc1N(C(=O)c1snc(C(N)=O)c1N)C(C(=O)NCc1ccccc1)c1ccc(O)cc1 (stereo unspecified),-3.5,3884,-5,-10,-15,12,1
Clc1ccc(-c2n[nH]c3c2CCC3)cc1Cl,11,2482,1,8,-11,.,.
Cc1cc(/C=C2\SC(=S)N(C)C2=O)c(C)n1-c1ccc(O)cc1,-5.9,5941,2,50,76*,12,12
O=C(Nc1ccc(-c2nc3ccccc3o2)cc1)c1ccc(N2CCOCC2)c([N+](=O)[O-])c1,18,10401,-4,-18,-26,6,-6
Oc1ccccc1C=NNc1nn[nH]n1,3.9,.,.,7,.,3,2
CCN(CC(=O)Nc1ccccc1C(F)(F)F)C(=O)/C=C/c1ccc(Cl)c([N+](=O)[O-])c1,1.0,6903,3,2,-2,0,12
CC(C)CCSc1nnc(Cn2c(=O)sc3ccccc32)n1C,-3.9,5622,-7,4,-19,.,.
C=CCNC(=S)NN=Cc1cn(C)c2ccccc12,2.4,.,.,-3,.,1,-1
COc1ccc(CC(=O)NCC(=O)NN=Cc2cc(Br)ccc2OC)cc1,1.6,.,.,7,.,11,2
O=C(CNC(=O)c1ccccc1O)NN=Cc1ccccn1,8.0,.,.,10,.,-4,-9
O=C(CCC(=O)c1ccc(Oc2ccccc2)cc1)Nc1ccc(C(=O)O)cc1,5.0,3239,-4,9,-30,-5,4
CC(=O)Nc1sc(C)c(C)c1CN1CCN(Cc2ccccc2)CC1,-0.8,3298,-19,3,-24,9,-6
CCN1CCC(CNCc2cn(-c3ccc(OC)cc3)nc2-c2ccccc2Cl)C1 (stereo unspecified),2.7,6465,0,1,-15,7,19
COc1ccc(OC)c(CNC(=O)C2CCC(=O)N(CCCN3CCCC3=O)C2)c1 (stereo unspecified),1.0,4420,5,-1,12,-4,1
COc1ccc(CC(=O)NCc2n[nH]c(=S)n2-c2ccccc2)cc1,6.4,4463,8,4,25,8,19
CCOC(=O)CNC(=O)CSc1nnc(-c2cccc(OC)c2)n1CC,-2.4,4152,4,8,-20,.,.
CC(C)OC(=O)/C(C#N)=C/c1cn(C)c2ccccc12,13,6117,3,-2,-14,13,16

From PubChem
